Compound activity deposited in PubChem by ICCB-Longwood Screening Facility, Harvard Medical School.
Mtb MenB inh: M. tuberculosis MenB inhibitors, primary screen, biochemical, absorbance; 1,4-dihydroxy-2-naphthoyl-CoA synthase (Mycobacterium tuberculosis (strain ATCC 25618 / …; MenB enzyme assay, absorbance read-out; some hits fall short of the stated cut; inhibition, %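 (about 12 µg/mL by stock and volumes)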; actives 0.43% (n = 100,000); AID 540299, 2011;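 active = mean of two replicates above 30%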;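 note: 0% = no compound and 100% = wells with inactive enzyme; the first replicate is given; strong numbers were not always called active; inactives centre near -10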
Target sequence (P9WNP5 whole entry, looked up): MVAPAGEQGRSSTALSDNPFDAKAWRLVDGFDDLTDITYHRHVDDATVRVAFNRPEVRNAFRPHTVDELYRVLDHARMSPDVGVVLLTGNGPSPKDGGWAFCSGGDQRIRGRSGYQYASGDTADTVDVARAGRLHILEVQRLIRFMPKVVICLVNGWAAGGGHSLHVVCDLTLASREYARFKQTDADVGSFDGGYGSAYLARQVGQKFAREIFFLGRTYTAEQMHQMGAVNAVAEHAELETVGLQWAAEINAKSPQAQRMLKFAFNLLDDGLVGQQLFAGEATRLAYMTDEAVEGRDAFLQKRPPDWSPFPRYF
Polio RdRp inh: poliovirus RdRp elongation inhibitors, primary screen, biochemical, fluorescence polarization, total intensity; % elongation, % (compound at 16.7 µg/mL); actives 0.66% (n = 150,000); AID 588519, 2011; Genome polyprotein (Poliovirus type 1 (strain Mahoney)), P03300; poliovirus polymerase elongation; stronger effect = lower value; in the data active = % elongation below about 90%; note: some results filed as inactive read as strong as hits
Target sequence (P03300 1749-2209 limits assumed): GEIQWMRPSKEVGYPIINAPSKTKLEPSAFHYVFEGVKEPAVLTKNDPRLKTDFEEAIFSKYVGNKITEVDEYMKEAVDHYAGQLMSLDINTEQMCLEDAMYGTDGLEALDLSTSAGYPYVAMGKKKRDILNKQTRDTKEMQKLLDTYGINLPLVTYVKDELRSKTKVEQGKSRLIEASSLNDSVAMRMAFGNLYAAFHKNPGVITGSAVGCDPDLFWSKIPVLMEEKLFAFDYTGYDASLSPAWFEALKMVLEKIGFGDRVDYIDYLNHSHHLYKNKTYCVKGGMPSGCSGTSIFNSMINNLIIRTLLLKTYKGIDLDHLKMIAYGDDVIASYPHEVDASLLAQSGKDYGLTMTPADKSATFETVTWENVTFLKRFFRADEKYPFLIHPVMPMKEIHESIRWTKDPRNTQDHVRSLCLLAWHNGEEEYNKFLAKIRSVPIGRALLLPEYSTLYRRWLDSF
MbtI inh: MbtI salicylate synthase inhibitors, primary screen, biochemical, fluorescence intensity; purified MbtI enzyme, fluorescence intensity read-out; inhibition, %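 (about 17 µg/mL by stock and volumes)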; actives 0.89% (n = 100,000);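 active = above 50% in both replicates, above 80% if mildly self-fluorescent; inactive = the rest, strongly fluorescent compounds included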;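 note: 0% = mean of negative and 100% = mean of positive controls; one replicate is shown; some compounds called inactive have numbers as strong as hits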
Polio RdRp inh intensity: recorded beside Polio RdRp inh, whose call it bears; % elongation; measured here: total intensity read-out; formula for this scale not given here;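 total fluorescence in place of polarization; lower means less elongation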
The depositor's hits bear a star; i = inactive; x = no result given; & = joins results of further samples.

SMILES | Mtb MenB inh | Polio RdRp inh | Polio RdRp inh intensity | MbtI inh
COc1ccc2c(c1)C(=O)N(Cc1ccccc1)C(=O)C2 | x | 101 | 100 | 29
O=C(O)c1ccccc1Nc1ccccn1 | -39 | 103 | 101 | 90
COc1cc(/C=N/Nc2nc(C)cc(=O)[nH]2)ccc1O | -23 | 104 | 104 | 10
Clc1ccccc1-c1nnc(CNC2CC2)o1 | 6 | 102 | 110 | -2
CC1=CC(c2ccccc2)=Nc2ccc(C)cc2N1 | 13 | 102 | 102 | 72
Cc1cccc2c(-c3ccccc3)cc(=O)[nH]c12 | -10 | 104 | 108 | x
O=C(NC1CCCc2ccccc21)c1cccs1 (stereo not given) | -8 | 113 | 120 | -108
NC(=S)N/N=C1\CCCC\C1=C/c1ccco1 | -13 | 102 | 102 | 36
O=C(COc1nccc2ccccc12)N1CCCc2ccccc21 | -9 | 98 | 117 | -4
CCCCc1nc(Cl)c(CO)n1Cc1ccc(-c2ccccc2-c2nn[nH]n2)cc1 | -4 | 101 | 102 | -9
C=CCN1C(=O)/C(=C2\SC(N)=NC2=O)c2ccccc21 | -21 | 101 | 104 | 5
Cc1[nH]c(-c2ccc(F)cc2)cc1C(=O)NCc1ccccn1 | 4 | 103 | 101 | -91
CC(OC(=O)c1cc2sccc2n1C)C(=O)NCc1cccs1 (stereo not given) | -38 | 103 | 104 | -5
O=C(CCCC1=NS(=O)(=O)c2ccccc2N1)N1CCCCCC1 | -1 | 102 | 106 | 8
Cc1noc(C)c1CSCC(=O)OCn1nnc2ccccc2c1=O | -23 | 106 | 103 | 28
Cc1ccc2[nH]c(=O)c(-c3noc(C(C)(C)C)n3)cc2c1 | -12 | 101 | 108 | -52
CC(C)Oc1ccccc1C(O)c1nnc(-c2ccccc2)o1 (stereo not given) | -25 | 104 | 109 | -11
CS(=O)(=O)N(CCc1ccccc1)CC(=O)N1CCc2ccccc2C1 | 14 | 103 | 102 | 18
COc1ccc(N=C2SCC(c3ccc(C)cc3)=NN2CCO)cc1 | -21 | 107 | 108 | -1
COc1ccc(-c2noc(-c3cc4ccccc4o/c3=N\NS(=O)(=O)c3ccc(OC)c(OC)c3)n2)cc1 | -6 | 100 | 101 | -7
O=C(C1CCCCC1)N1CCN=C1SCc1cccnc1 | -2 | 103 | 106 | 0
Cc1nc2sccn2c(=O)c1S(=O)(=O)N1CC(=O)N(CCc2ccccc2)C(=O)C1 | -2 | 102 | 102 | 121
O=C(Cc1ccc(F)cc1)Nc1ccc(CN2CCCC2)cc1 | 17 | 101 | 103 | -13
CCOc1ccc(Oc2c(/C=N/NC(N)=O)c(C)nn2-c2ccccc2)cc1 | 0 | 105 | 96 | 42
CS(=O)(=O)c1ccc2nc(NC(=O)c3ccc4nc[nH]c4c3)sc2c1 | -15 | 99 | 101 | 8
Cc1ccc(C(=O)Nc2ccc(Oc3ccccc3)cc2)cc1I | -24 | 103 | 105 | x
O=C(NCC(F)(F)F)c1ccc(N2CCCC2=O)cc1 | -15 | 101 | 94 | -5
Cc1cccc(C)c1NC1OC(=O)c2ccccc21 (stereo not given) | -5 | 102 | 97 | -2
COc1ccccc1S(=O)Cc1ccc(C(=O)O)o1 (stereo not given) | -18 | 103 | 107 | 9
O=C(O)c1ccc(CSc2nnc(-c3ccccc3)o2)cc1 | -9 | 102 | 105 | -15
COc1ccc(Cn2nnnc2C(C(C)C)N2CCc3ccccc32)cc1 (stereo not given) | -35 | 100 | 100 | -3
O=C1CC(N2CCOCC2)C(=O)N1 (stereo not given) | -24 | 102 | 95 | -5
COC(=O)Cn1c(=NC(=O)CSCC(=O)Nc2nccs2)sc2cc(OC)ccc21 | -14 | 103 | 104 | 30
CN(C)c1nc2cc(Cl)ccc2o1 | -30 | 103 | 107 | x
FC(F)(F)Oc1ccccc1NC(=S)NCc1ccc2c(c1)CCO2 | -7 | 104 | 103 | -9
Cc1ccccc1OCC(=O)OCC(=O)N1c2ccccc2CC1C (stereo not given) | x | 102 | 98 | -1
O=C(NCCN1CCN(C(=O)NC2CCCCC2)CC1)NC1CCCCC1 | -14 | 100 | 101 | -8
O=C(O)c1nccnc1C(=O)NC1CCN(Cc2c(F)cccc2Cl)CC1 | -9 | 95 | 95 | 4
Cc1ccc(CNC(=O)CCCn2nc(-n3cccc3)c3c(C)cc(C)nc32)cc1 | -12 | 101 | 104 | -57
CCOC(=O)Cn1c(=O)oc2cc(S(=O)(=O)NCc3ccccc3OC)ccc21 | -4 | 100 | 102 | -5
CN(Cc1ccccc1)Cn1[nH]c(=O)ccc1=O | 17 | 101 | 102 | 11
Cc1c(C)c(C)c(C(=O)c2ccccc2C(=O)NN)c(C)c1C | -3 | 105 | 111 | -16
O=C(CC(c1ccccc1)c1ccccc1)Nc1nnc(-c2ccccc2)o1 | -17 | 103 | 103 | -19
CC(C)CCn1c(=O)c2ccccc2n2c(CN3CCCC3)nnc12 | 9 | 100 | 105 | -9
CCCC(=O)Nc1nc2c(ncn2C2O[C@H]3COP(=O)(O)O[C@@H]3[C@@H]2OC(=O)CCC)c(=O)[nH]1 (stereo not given in full) | 7 | 102&99 | 99&97 | 6
O=c1oc2c3c(ccc2c2c1CCC2)OCN(CCc1ccccc1)C3 | -16 | 101 | 103 | 138
CCc1c(C(=O)N2CCN(Cc3cccc(OC)c3)CC2)csc1C | -18 | 99 | 101 | -7
CCCNC(=O)Nc1ccc2c(c1)CCC2 | 2 | 100 | 101 | -8
COc1cccc(C(O)C(F)(F)F)c1 (stereo not given) | 29* | 100 | 106 | 8
CCC(Sc1nc(C)cc(C)n1)C(=O)Nc1sc2c(c1C#N)CCCC2 (stereo not given) | -4 | 102 | 106 | x

Later entries
SMILES | Mtb MenB inh | Polio RdRp inh | Polio RdRp inh intensity | MbtI inh
CC(C)Cn1c(SCC(=O)Nc2ccc(F)cc2F)nc2ccccc2c1=O | 1 | 107 | 111 | x
O=C(Oc1ccc(-c2ccccc2)nn1)c1cccs1 | -11 | 98 | 99 | -24
Cc1c(C=Nc2cccc3nsnc23)c(=O)n2c([nH]c3ccccc32)c1C#N | 5 | 145 | 161 | x
CC(Sc1nc(C2CC2)n(-c2ccccc2)n1)C(=O)NC(C)(C#N)C(C)C (stereo not given) | -3 | 104 | 99 | -10
Cc1nc2ccc(Br)cc2c(=O)n1-c1ccccc1N1CCOCC1 | -10 | 100 | 100 | -3
CC1CCc2cc(F)ccc2N1C(=O)Nc1ccc(F)cc1 (stereo not given) | 4 | 102 | 103 | 10
CN(C)C(=O)COC(=O)c1cc(Cl)cc(Cl)c1N | x | 98 | 98 | 94
N#Cc1cn(CC(=O)Nc2ccccc2C(F)(F)F)c2ccccc12 | 8 | 101 | 103 | -2
Cn1nc(C(=O)OCC(=O)NCc2ccc(Cl)cc2)c2ccccc2c1=O | 5 | 100 | 90 | 7
O=C(Oc1ccc(-c2nnco2)cc1)c1cccc(S(=O)(=O)N2CCc3ccccc32)c1 | -9 | 104 | 108 | -6
COc1cc(N(C(=O)c2cnccn2)C(C(=O)NCc2ccccc2)c2cccs2)ccc1-n1cnnn1 (stereo not given) | 0 | 102 | 102 | -23
CCC(=O)c1cc(Cl)ccc1O | -3 | 103 | 104 | -3
O=C(COC(=O)C12CCC(=O)N1c1ccccc1S2)c1ccc2c(c1)OCO2 (stereo not given) | -14 | 99 | 100 | 29
O=C1NC(=O)C2C1Sc1[nH]c(=O)sc1C2c1c[nH]c2ccccc12 (stereo not given) | -58 | 91 | 97 | 86
COCC(=O)OCC1CCCN2CCCCC12 (stereo not given) | -8 | 96 | 101 | x
N#Cc1c(C(F)(F)F)cc(=O)[nH]c1S | -35 | 100 | 99 | 8
CN(n1cnc2ccsc2c1=O)S(=O)(=O)c1ccc(Cl)cc1 | 8 | 102 | 91 | -10
COc1ccc(N(C(C)=O)c2nc3ccccc3[nH]2)cc1 | 5 | 99 | 103 | 10
O=C1CSc2nnc(Cn3nnc4ccccc43)n2N1 | 3 | 97 | 97 | 87*
CCC(=O)Nc1ccc2c(c1)oc1ccccc12 | -13 | 99 | 103 | -24
COc1ccc(-n2ccnc2SCC(=O)N2CCCC2c2cccs2)cc1 (stereo not given) | -6 | 96 | 106 | -8
Cn1cc(-c2nnc(-c3ccccc3)o2)c2ccccc21 | 22 | 102 | 102 | -159
O=C(CSc1nc2sc3c(c2c(=O)n1Cc1ccco1)CCCC3)NC(=O)NC1CC1 | -5 | 102 | 97 | 18
O=C(O)COc1ccc2nncn2n1 | -66 | 104 | 104 | 4
COc1ccc(S(=O)(=O)CCc2nc3ccccc3n2CC(=O)O)cc1 | 26 | 101 | 100 | -9
Clc1ccc2c(c1)C(N1CCNCC1)=Nc1ccccc1O2 | -1 | 101 | 101 | 5
Cc1cc2nc(N3CCc4ccccc43)c3ccccc3n2n1 | 0 | 92 | 129 | 10
CCOC(=O)C1=C(CSc2nnc(-c3ccccc3)n2CC)NC(=O)NC1c1cccs1 (stereo not given) | -30 | 105 | 113 | -11
O=C(O)c1ccc(N/C=C/C(=O)c2ccco2)cc1 | i | 104 | 98 | 20
O=C(CSc1ccccc1)OCC(=O)c1cc2ccccc2o1 | -21 | 107 | 106 | 1
O=C(CC(c1cccs1)N1Cc2ccccc2C1=O)N1CCC2(CC1)OCCO2 (stereo not given) | -30 | 105 | 99 | -6
